# Yeast UUG start – modulators of yeast start codon fidelity, primary screen, whole organism, S. cerevisiae, single point, plate reader; AID 602363, 2012; activity score, % at 18.7 µM; actives 0.13% (n = 350,000); S. cerevisiae UUG-firefly luciferase reporter, luminescence/redox ratio;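 active = replicate mean at a twofold rise or more, about +100% in these data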;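 note: firefly luciferase made from a UUG start codon reports start codon fidelity; reporter light over untreated wells divided by growth signal over untreated wells; some hits fall short of that in this replicate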
# The depositor's hits bear a star. This is a subset (hit frequency here may not be typical).
compound,Yeast UUG start
C[C@@H]1CN([C@H](C)CO)C(=O)c2cccc(NC(=O)Nc3ccc4c(c3)OCO4)c2O[C@H]1CN(C)S(=O)(=O)c1cccs1,5
COCC(=O)Nc1ccc2c(c1)OC[C@H](C)N(C)C[C@H](C)[C@H](OC)CN(C)C2=O,-10
COc1cccc(S(=O)(=O)N2C[C@H](O)COC[C@@H]3O[C@@H](CC(=O)N4CCOCC4)CC[C@H]32)c1,8
O=C(C1CC1)N1CCCCN2[C@H](C1)[C@H](c1ccc(-c3ccncc3)cc1)[C@@H]2CO,-4
O=C(Nc1ccc(-c2ccccc2)cc1)[C@H]1[C@H](CO)[C@H]2Cn3c(cccc3=O)[C@H]2N1CC1CCOCC1,15
O=C(NCCc1ccccc1)[C@@H]1[C@@H](CO)[C@@H]2Cn3c(cccc3=O)[C@@H]2N1Cc1ccncc1,-3
C[C@@H]1CN([C@@H](C)CO)C(=O)c2cccc(N(C)C)c2O[C@@H]1CN(C)S(=O)(=O)c1ccc(Cl)cc1,1
COc1cccc(S(=O)(=O)Nc2ccc3c(c2)C(=O)N(C)C[C@@H](OC)[C@@H](C)CN(Cc2ccccc2F)[C@@H](C)CO3)c1,4
COc1ccc(S(=O)(=O)Nc2ccc3c(c2)C(=O)N([C@H](C)CO)C[C@@H](C)[C@@H](CN(C)CC2CCCCC2)O3)cc1,7
CO[C@@H]1CN(C)C(=O)c2ccc(NS(=O)(=O)c3cccc(C)c3)cc2OC[C@@H](C)NC[C@H]1C,10
C[C@H](CO)N1C[C@H](C)[C@H](CN(C)Cc2ccncc2)Oc2ccc(NC(=O)Cc3cn(C)c4ccccc34)cc2CC1=O,1
COc1ccccc1C#Cc1ccc([C@H]2[C@H]3CN(C(=O)C4CCC4)CCCCN3[C@H]2CO)cc1,8
CO[C@@H]1CN(C)C(=O)c2cc(NC(=O)c3ccccc3)ccc2OC[C@@H](C)N(C(C)=O)C[C@@H]1C,-12
COc1ccc(NC(=O)Nc2ccc3c(c2)C(=O)N([C@@H](C)CO)C[C@@H](C)[C@H](CN(C)C(=O)Nc2c(C)noc2C)O3)cc1,-22
O=C(c1ccncc1)N1C[C@H]2[C@@H](c3ccccc31)[C@H](CO)N2C(=O)CN1CCOCC1,4
O=C(C[C@H]1CC[C@@H]2[C@H](COC[C@H](O)CN2C(=O)c2ccccc2F)O1)NCc1ccc(F)cc1,2
Cc1ccc(S(=O)(=O)Nc2ccc3c(c2)C(=O)N([C@@H](C)CO)C[C@@H](C)[C@@H](CN(C)C(=O)Nc2ccc(C(F)(F)F)cc2)O3)cc1,3
CO[C@@H]1CN(C)C(=O)c2cc(NC(=O)C3CCC3)ccc2OC[C@H](C)N(CC2CCCCC2)C[C@H]1C,-4
CO[C@@H]1CN(C)C(=O)c2cc(NC(=O)c3ccccc3F)ccc2OC[C@@H](C)N(C(=O)c2ccccc2F)C[C@@H]1C,14
C[C@H](CO)N1C[C@H](C)[C@H](CN(C)S(=O)(=O)c2ccc(F)cc2)Oc2ccc(NC(=O)Cc3ccccc3)cc2C1=O,4
C[C@H](CO)N1C[C@H](C)[C@H](CN(C)C)Oc2c(NS(=O)(=O)c3cn(C)cn3)cccc2C1=O,7
CC=Cc1ccc2n(c1=O)C[C@@H]1[C@@H](CO)[C@H](C(=O)NCc3ccc(F)cc3)N(CC)[C@H]21 (mixture of isomers),4
O=C(C[C@@H]1CC[C@@H]2[C@H](COC[C@@H](O)CN2Cc2cccc(Cl)c2)O1)NCc1cccc(F)c1,21
C[C@@H]1CN([C@H](C)CO)C(=O)c2cccc(NC(=O)c3nc4ccccc4s3)c2O[C@@H]1CN(C)Cc1ccncc1,5
CO[C@@H]1CN(C)C(=O)c2ccc(NC(=O)C3CC3)cc2OC[C@H](C)N(C(=O)CN2CCOCC2)C[C@H]1C,-9
CCCC(=O)Nc1ccc2c(c1)C(=O)N(C)C[C@@H](OC)[C@H](C)CN(C(=O)CN(C)C)[C@@H](C)CO2,8
COc1ccc(CN(C)C[C@H]2Oc3ccc(NS(C)(=O)=O)cc3C(=O)N([C@@H](C)CO)C[C@@H]2C)cc1,-15
CC(C)NC(=O)Nc1cccc2c1O[C@@H](CN(C)S(=O)(=O)c1ccc(Cl)cc1)[C@@H](C)CN([C@@H](C)CO)C2=O,-7
O=C(c1cccc(F)c1)N1C[C@H]2[C@@H](c3ccccc31)[C@@H](CO)N2C(=O)c1ccccn1,5
C[C@H]1CN([C@@H](C)CO)C(=O)Cc2cc(NC(=O)C3CCCCC3)ccc2O[C@H]1CN(C)S(=O)(=O)c1ccc(F)cc1,-4
O=S(=O)(c1ccccc1)N1CC[C@@H]2[C@@H](CO)Nc3ccc(C#Cc4ccccc4F)cc3[C@@H]21,-10
CCC(=O)Nc1ccc2c(c1)C(=O)N(C)C[C@@H](OC)[C@@H](C)CN(C(=O)NC(C)C)[C@H](C)CO2,-13
Cc1ccc(-c2ccc([C@H]3[C@@H](CO)N4CCCCN(C(=O)c5ccc(F)cc5)C[C@H]34)cc2)cc1,-4
CO[C@@H]1CN(C)C(=O)c2ccc(NC(C)=O)cc2OC[C@@H](C)N(C(=O)c2cccnc2)C[C@@H]1C,-1
CO[C@@H]1CN(C)C(=O)c2cc(NS(C)(=O)=O)ccc2OC[C@@H](C)N(C(=O)C2CC2)C[C@H]1C,12
C[C@@H]1CN([C@@H](C)CO)C(=O)Cc2cc(NS(=O)(=O)c3cn(C)cn3)ccc2O[C@@H]1CN(C)Cc1ccncc1,2
C/C=C/c1ccc([C@H]2[C@H]3CN(S(=O)(=O)c4cccs4)CCCCN3[C@H]2CO)cc1,15
CO[C@@H]1CN(C)C(=O)c2cc(NC(=O)Nc3ccccc3F)ccc2OC[C@H](C)N(C)C[C@H]1C,-5
CN1c2ccc(C#Cc3cccnc3)cc2[C@@H]2[C@@H](CCN2S(=O)(=O)c2ccccc2F)[C@H]1CO,-7
C[C@@H]1CN([C@@H](C)CO)C(=O)c2cccc(NC(=O)c3ccncc3)c2O[C@@H]1CN(C)C(=O)Nc1ccccc1,-6
C[C@@H]1CN([C@@H](C)CO)C(=O)c2cccc(NC(=O)Nc3ccc(C(F)(F)F)cc3)c2O[C@@H]1CN(C)CC1CCCCC1,5
COc1ccc(CN(C)C[C@H]2Oc3c(NS(=O)(=O)c4cn(C)cn4)cccc3C(=O)N([C@H](C)CO)C[C@@H]2C)cc1,-11
C[C@@H]1CN([C@@H](C)CO)C(=O)c2cccc(NC(=O)C3CCOCC3)c2O[C@H]1CN(C)Cc1ccc(C(=O)Nc2ccccc2N)cc1,13
Cc1cccc(-c2ccc([C@@H]3[C@H](CO)N4CCCCN(S(=O)(=O)c5cn(C)cn5)C[C@@H]34)cc2)c1,-10
Cc1ccc(S(=O)(=O)Nc2ccc3c(c2)C(=O)N([C@H](C)CO)C[C@H](C)[C@H](CN(C)C(=O)Nc2ccc(C(F)(F)F)cc2)O3)cc1,-3
C[C@@H]1CN([C@H](C)CO)C(=O)c2cc(NC(=O)Nc3ccc(C(F)(F)F)cc3)ccc2O[C@@H]1CN(C)C(=O)NC1CCCCC1,-6
CN1c2ccc(-c3cccc(F)c3)cc2[C@@H]2[C@@H](CCN2C(=O)C2CCOCC2)[C@H]1CO,-1
CCC(=O)Nc1ccc2c(c1)OC[C@@H](C)N(Cc1cncnc1)C[C@H](C)[C@@H](OC)CN(C)C2=O,11
CO[C@H]1CN(C)C(=O)c2cc(NC(=O)C3CC3)ccc2OC[C@@H](C)N(Cc2cccnc2)C[C@H]1C,4
CNC[C@H]1Oc2c(NS(=O)(=O)c3ccc(C)cc3)cccc2C(=O)N([C@@H](C)CO)C[C@@H]1C,-16

# Arranged by length of the SMILES (highest first): part of the list above.
compound,Yeast UUG start
C[C@@H]1CN([C@H](C)CO)C(=O)c2cc(NC(=O)Nc3ccc(C(F)(F)F)cc3)ccc2O[C@@H]1CN(C)C(=O)NC1CCCCC1,-6
C[C@@H]1CN([C@@H](C)CO)C(=O)Cc2cc(NS(=O)(=O)c3cn(C)cn3)ccc2O[C@@H]1CN(C)Cc1ccncc1,2
COc1ccc(CN(C)C[C@H]2Oc3ccc(NS(C)(=O)=O)cc3C(=O)N([C@@H](C)CO)C[C@@H]2C)cc1,-15
CN1c2ccc(-c3cccc(F)c3)cc2[C@@H]2[C@@H](CCN2C(=O)C2CCOCC2)[C@H]1CO,-1

# 3 of the entries above in order of their number in Yeast UUG start, highest first:
SMILES	Yeast UUG start
CO[C@@H]1CN(C)C(=O)c2cc(NC(=O)Nc3ccccc3F)ccc2OC[C@H](C)N(C)C[C@H]1C	-5
O=S(=O)(c1ccccc1)N1CC[C@@H]2[C@@H](CO)Nc3ccc(C#Cc4ccccc4F)cc3[C@@H]21	-10
COc1ccc(CN(C)C[C@H]2Oc3ccc(NS(C)(=O)=O)cc3C(=O)N([C@@H](C)CO)C[C@@H]2C)cc1	-15

# New compounds follow:
compound,Yeast UUG start
C[C@@H]1CN([C@@H](C)CO)C(=O)c2cc(NC(=O)CCCCCC(=O)Nc3ccccc3N)ccc2O[C@@H]1CN(C)C(=O)Nc1ccc(C(F)(F)F)cc1,-1
CN(C)CC(=O)Nc1ccc2c(c1)[C@@H]1C[C@H](CC(=O)NCc3cccnc3)O[C@H](CO)[C@@H]1O2,-23
CCCC(=O)Nc1ccc2c(c1)C(=O)N(C)[C@@H]1CC[C@@H](CC(=O)NCC3CC3)O[C@@H]1CO2,30
CCCNC(=O)N1C[C@H]2[C@@H](c3ccccc31)[C@H](CO)N2Cc1ccc(F)cc1,-1
COc1ccc(C#Cc2ccc3c(c2)[C@H]2[C@H](CCN2C(=O)c2cccc(F)c2)[C@@H](CO)N3)cc1,-14
COc1ccccc1S(=O)(=O)N1CC[C@@H]2[C@H](CO)Nc3ccc(Br)cc3[C@@H]21,-18
C[C@@H]1CN([C@H](C)CO)C(=O)c2cc(NC(=O)Cn3cnnn3)ccc2O[C@H]1CN(C)S(=O)(=O)c1cn(C)cn1,0
COc1ccc(NC(=O)N(C)C[C@@H]2Oc3ccc(NC(=O)CCN4CCOCC4)cc3CC(=O)N([C@@H](C)CO)C[C@@H]2C)cc1,4
C[C@@H]1CN([C@H](C)CO)C(=O)c2cccc(N(C)C)c2O[C@H]1CN(C)S(=O)(=O)c1ccc(F)cc1,10
CCCNC(=O)N1[C@@H]2CN(C(=O)NC(C)C)c3ccccc3[C@@H]2[C@@H]1CO,0
O=C(c1ccccc1F)N1C[C@@H]2[C@H](c3ccccc31)[C@H](CO)N2C(=O)c1ccncc1,-3
COc1ccc(CN(C)C[C@H]2Oc3ccc(NS(=O)(=O)c4cn(C)cn4)cc3C(=O)N([C@@H](C)CO)C[C@@H]2C)cc1,-10
Cc1ccc(S(=O)(=O)Nc2ccc3c(c2)CC(=O)N([C@H](C)CO)C[C@H](C)[C@H](CN(C)CC2CC2)O3)cc1,-3
CN1C(=O)c2cc(NC(=O)C3CC3)ccc2OC[C@H]2O[C@H](CC(=O)NCCN3CCCC3)CC[C@@H]21,-4
COc1ccc(S(=O)(=O)N(C)C[C@@H]2Oc3c(NC(=O)c4ccncc4)cccc3C(=O)N([C@H](C)CO)C[C@@H]2C)cc1,-8
CO[C@H]1CN(C)C(=O)c2ccc(NC(=O)NC(C)C)cc2OC[C@H](C)N(Cc2ccccc2)C[C@@H]1C,0
CCCNC(=O)N1[C@@H](CO)[C@@H](c2ccccc2)[C@@H]1CNC(=O)c1ccc(F)cc1,4
COCC(=O)N1C[C@H](C)[C@H](OC)CN(C)C(=O)c2cc(NC(=O)c3cnccn3)ccc2OC[C@H]1C,4
O=C(Nc1ccccc1F)N1C[C@H]2[C@@H](c3ccccc31)[C@@H](CO)N2C(=O)C1CCCCC1,8
CCCNC(=O)N1CC[C@@H]2[C@H]1c1cc(C#Cc3ccc(OC)cc3)ccc1N(C)[C@@H]2CO,12
OC[C@@H]1[C@@H](c2ccc(C#CC3(O)CCCC3)cc2)[C@H]2CN(Cc3ccccc3F)CCCCN12,12
CC1C=NC(S(=O)(=O)N2CC[C@@H]3[C@H]2c2cc(-c4cccc(F)c4)ccc2N(C)[C@H]3CO)=N1 (stereo not given in full),6
COc1ccc(NC(=O)N(C)C[C@H]2Oc3c(NC(=O)Nc4cccc5ccccc45)cccc3C(=O)N([C@@H](C)CO)C[C@@H]2C)cc1,4
COc1ccc(C#Cc2ccc([C@H]3[C@@H](CO)N4CCCCN(C(=O)Nc5ccccc5)C[C@H]34)cc2)cc1,7
CC(C)NC(=O)N1[C@H](CNC(=O)CN(C)C)[C@H](c2ccccc2)[C@@H]1CO,-9
CNC[C@@H]1Oc2c(NC(=O)Nc3ccc(F)cc3)cccc2C(=O)N([C@@H](C)CO)C[C@@H]1C,2
CN(C)C(=O)c1ccc(-c2ccc3c(c2)[C@H]2[C@H](CCN2C(=O)c2ccccc2)[C@@H](CO)N3)cc1,-8
C[C@@H]1CN([C@@H](C)CO)C(=O)Cc2cc(NC(=O)C3CC3)ccc2O[C@H]1CN(C)S(=O)(=O)c1ccc(Cl)cc1,0
CCCNC(=O)NC[C@@H]1[C@@H](c2ccc(C3=CCCC3)cc2)[C@H](CO)N1C(=O)CC,0
O=C(Nc1ccc(Cl)cc1)N1C[C@@H]2[C@H](c3ccccc31)[C@@H](CO)N2CC1CCCC1,-14
CC(=O)NC[C@H]1[C@H](c2ccc(-c3cccnc3)cc2)[C@@H](CO)N1C(=O)C1CCC1,-15
COc1ccc(NC(=O)Nc2ccc3c(c2)CC(=O)N([C@@H](C)CO)C[C@H](C)[C@@H](CN(C)C(=O)Nc2ccccc2)O3)cc1,-11
CO[C@H]1CN(C)C(=O)c2cc(NC(=O)C3CC3)ccc2OC[C@@H](C)N(C(=O)c2cnccn2)C[C@@H]1C,3
COC(=O)[C@H]1[C@H](CO)[C@H]2Cn3c(ccc(-c4ccc(F)cc4)c3=O)[C@H]2N1C(=O)C1CC1,-8

# From PubChem BioAssay
